# High-throughput results: PubChem, several laboratories
# Exocytosis inh – lytic granule exocytosis inhibition. TALL-104 LAMP-1 surface exposure, flow cytometry; cells stimulated with thapsigargin and PMA. inhibition, % at 10 µM. 360,000 compounds, 0.66% hits. AID 651702;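 active = inhibition above about 55%, limit read from the data; inconclusive = no clear call, values can overlap the other calls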
# PDI turbidity – PDI (human) enzyme inhibition | P07237 | PDI insulin aggregation turbidity, A650, 90 min | inhibition, % at 10 µM | 350,000 compounds, 0.052% hits;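 active = mean inhibition across replicates of 30% or more, whatever share of single replicates reach that level; inconclusive = mean inhibition below 30% while every single replicate reaches 30%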;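 note: absorbance from insulin aggregation driven by PDI reduction with DTT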
# Target sequence (P07237 whole entry, looked up): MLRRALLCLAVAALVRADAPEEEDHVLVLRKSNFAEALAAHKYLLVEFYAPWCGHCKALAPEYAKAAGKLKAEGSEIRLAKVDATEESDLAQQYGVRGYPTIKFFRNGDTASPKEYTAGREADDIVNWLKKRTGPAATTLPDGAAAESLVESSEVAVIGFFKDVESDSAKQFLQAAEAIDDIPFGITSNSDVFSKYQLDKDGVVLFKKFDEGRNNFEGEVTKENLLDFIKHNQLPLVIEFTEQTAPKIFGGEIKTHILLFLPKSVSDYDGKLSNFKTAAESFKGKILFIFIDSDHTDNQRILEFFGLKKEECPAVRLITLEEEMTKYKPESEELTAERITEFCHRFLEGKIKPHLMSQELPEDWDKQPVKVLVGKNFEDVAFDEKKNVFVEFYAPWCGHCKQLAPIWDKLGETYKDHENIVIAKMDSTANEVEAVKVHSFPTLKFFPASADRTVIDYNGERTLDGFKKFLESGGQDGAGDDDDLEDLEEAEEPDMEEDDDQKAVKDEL
# aDG glyco act – alpha-DG glycosylation activation | activation, % at 10 µM | 360,000 compounds, 0.22% hits | Pro5-aDG cells, alpha-DG glycosylation AlphaScreen (IIH6); 0% Pro5, 100% B10-LARGE cell signal | AID 624168;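 active = activation of at least 8% versus controls, or a plate z-score of at least 8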;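 note: Pro5 are CHO cells carrying HIG-tagged alpha-DG that lacks glycosylation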
# CaV13 ICDI inh – Disruptors of the CACNA1D IQ motif to Ca2+-dependent inactivation inhibitor domain association, primary screening, Förster resonance energy transfer in intact living …; 340,000 compounds, 0.098% hits; HEK cells, CFP/YFP FRET ICDI-IQ, plate reader, 10 min; percent FRET-ratio fall versus neutral wells; AID 743397; inhibition, % at 12.3 µM;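 active = mean replicate inhibition of at least 30% and at least 1% of replicates passing that level; inconclusive = only one of the two criteria is met; inactive = neither criterion is met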;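 note: 0% = median of the neutral control wells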
# Vif imaging – HIV Vif inhibition | HEK293T cells, Vif self-association by quenched fluorescence, imaging, 24 h | inhibition, % at 7.49 µM | 340,000 compounds, 0.35% hits | AID 602346; in the data active = inhibition above about 50%, passing the limit was not always enough; inconclusive = no clear call, values can overlap the other calls; inactive = below about 31%; note: some results filed as inactive read as strong as hits
# hiPSC survival – enhancers of human iPSC single-cell survival; 360,000 compounds, 0.044% hits; survival enhancement, % at 20 µM; hiPSC single-cell survival, ATPlite luminescence; 100% = ROCK inhibitor wells, 0% = DMSO; in the data active = survival enhancement above about 18%;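 note: cells exposed to compounds for 16 hours before the ATP read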
# Starred values were filed as active, the others as inactive; ? = inconclusive; / = not tested or not shown. Some of the compounds tested; rates above refer to the full screens.
1) O=C(O)C1CCN(S(=O)(=O)/C=C/c2ccccc2)CC1
2) COc1ccc2cc([C@@H](C)C(=O)O)ccc2c1
3) O=C(O)c1cc(-c2cccs2)nc2ccc(Br)cc12
4) CN1[C@@H]2CC[C@H]1CC(OC(=O)[C@H](CO)c1ccccc1)C2 (stereo partly specified)
5) CN(C)CCCN1c2ccccc2CCc2ccccc21
6) CC(C)(C(=O)O)c1ccc([C@H](O)CCCN2CCC(C(O)(c3ccccc3)c3ccccc3)CC2)cc1
7) COc1cccc2cc(C(=O)C3=C(O)C(=O)N(c4cc(C)on4)C3c3cccs3)oc12 (stereo unspecified)
8) Cc1cc(C)c(CNC(=O)c2cc(C3CC3)nc3c2cnn3C(C)C)c(=O)[nH]1
9) O=C(C1=C(O)C(=O)N(CCN2CCOCC2)C1c1cccc(F)c1)c1cc2ccccc2o1 (stereo unspecified)
10) O=C(NCc1cccnc1)c1cc(-c2ccco2)on1
assay / entry,1,2,3,4,5,6,7,8,9,10
Exocytosis inh,6,1,2,/,0,/,?,-2,-2,-2
PDI turbidity,2,-13,16,3,2,-1,3,-3,0,8
aDG glyco act,-0.2,0.0,0.1,-0.1,-0.5,-0.1,0.4,0.3,0.1,0.5
CaV13 ICDI inh,-9,-5,-20,-6,-4,-6,-4,-3,-2,-8
Vif imaging,14,-1,7,-1,-3,-6,-3,-3,-6,/
hiPSC survival,2.2,-3.5,-0.3,1.6,1.6,3.0,0.0,0.0,0.0,-2.3

# Ordered by molecular weight (low to high): three of the compounds above.
5) CN(C)CCCN1c2ccccc2CCc2ccccc21
8) Cc1cc(C)c(CNC(=O)c2cc(C3CC3)nc3c2cnn3C(C)C)c(=O)[nH]1
9) O=C(C1=C(O)C(=O)N(CCN2CCOCC2)C1c1cccc(F)c1)c1cc2ccccc2o1 (stereo unspecified)
assay / entry,5,8,9
Exocytosis inh,0,-2,-2
PDI turbidity,2,-3,0
aDG glyco act,-0.5,0.3,0.1
CaV13 ICDI inh,-4,-3,-2
Vif imaging,-3,-3,-6
hiPSC survival,1.6,0.0,0.0

# More structures.
11) C[C@H](CS)C(=O)N1CCC[C@H]1C(=O)O
12) CCCCNc1ccc(C(=O)O)cc1
13) Cc1ccccc1Nc1nc(N)nc(C)c1Br
14) Cc1ccc(/C=C/C(=O)c2ccccc2)cc1
15) COc1ccc(Cn2cc(C(=O)O)c(=O)c3ccccc32)cc1
16) CN1[C@@H]2CC[C@H]1CC(OC(=O)C(CO)c1ccccc1)C2 (stereo partly specified)
assay / entry,11,12,13,14,15,16
Exocytosis inh,3,2,-3,10,0,/
PDI turbidity,-4,4,3,11,-3,-3
aDG glyco act,-0.4,0.2,0.5,2.0,-0.3,0.0
CaV13 ICDI inh,-5,-5,-5,-6,-2,-4
Vif imaging,-5,-2,-5,12,2,-3
hiPSC survival,0.7,-0.5,7.5,-2.2,-0.2,-0.2

# Shown with values under each structure: entries from further up.
# Every second line gives: Exocytosis inh, PDI turbidity, aDG glyco act, CaV13 ICDI inh, Vif imaging, hiPSC survival
11) C[C@H](CS)C(=O)N1CCC[C@H]1C(=O)O
  3, -4, -0.4, -5, -5, 0.7
12) CCCCNc1ccc(C(=O)O)cc1
  2, 4, 0.2, -5, -2, -0.5
13) Cc1ccccc1Nc1nc(N)nc(C)c1Br
  -3, 3, 0.5, -5, -5, 7.5
